MT1-MMP promoter: inhibitors of MT1-MMP promoter transcription, cell-based, luciferase reporter, luminescence (AID 618); MT1-MMP promoter luciferase reporter cells, luminescence; calls from a first round at 10 µM; hits with a dose series show EC50 in µM; 87,000 compounds, 0.62% hits;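 active means over half of the reporter light lost at 10 µM or EC50 under 50 µM; inactive means the rest and hits that failed the dose series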;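 further: actives suppress MT1-MMP promoter-driven transcription so potencies describe inhibitors; HT1080 fibrosarcoma cells; overnight exposure; toxic or luciferase-blocking compounds were not removed from the actives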
Hsc70 ATP site: Hsc70 inhibitors, probe displacement, primary screen, biochemical, fluorescence polarization (AID 568); Heat shock cognate 71 kDa protein (Homo sapiens); Hsc70 fluorescence polarization, probe displacement; higher % means a stronger effect; strong numbers were not always called active; displacement, % at 20 µM; hits with a dose series show IC50 in µM; 83,000 tested, under 10 active;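 active means displacement above 50% without optical interference and an IC50 on retest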;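 further: ATPase domain with a fluorescein-tagged ATP probe; 0% = vehicle and 100% = excess ADP; read after one hour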
WNV NS2B-NS3 inh: inhibitors of WNV NS2B-NS3 protease, primary screen, biochemical, fluorogenic substrate; z-score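 (tested at a level between 10 and 100 µM)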; Genome polyprotein (West Nile virus), P06935; 65,000 compounds, 0.18% hits; fluorogenic substrate Ex360/Em465; active compounds read low;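 active means z-score at -3 or under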;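 further: score is relative to mean and spread of the compound wells of a plate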
Target sequence (P06935 1371-1501 limits assumed): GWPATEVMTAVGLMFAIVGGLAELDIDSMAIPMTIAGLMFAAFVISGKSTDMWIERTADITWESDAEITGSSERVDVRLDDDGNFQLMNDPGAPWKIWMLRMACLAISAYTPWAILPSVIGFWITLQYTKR
Target sequence (P06935 1502-1679 limits assumed): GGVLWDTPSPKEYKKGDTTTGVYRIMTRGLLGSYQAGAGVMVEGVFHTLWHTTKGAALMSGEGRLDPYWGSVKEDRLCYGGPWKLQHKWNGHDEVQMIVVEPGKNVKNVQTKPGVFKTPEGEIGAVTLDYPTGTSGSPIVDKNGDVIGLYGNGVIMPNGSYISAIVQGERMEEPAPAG
* marks the source's active call; other numbers are inactive results; i = inactive; · = not tested or not shown. A portion of the library; rates above refer to the full screens.

SMILES	MT1-MMP promoter	Hsc70 ATP site	WNV NS2B-NS3 inh
O=C(O)c1ccc(COc2ccc3c4c(c(=O)oc3c2)CCC4)o1	i	-10%	-0.5
COc1ccc(NC(=O)CSc2nc3c(c(=O)n2-c2ccccc2)SCC3)c(OC)c1	i	1.0%	0.04
CCNc1oc(-c2cccc3ccccc23)nc1C#N	i	4.6%	0.54
COC(=O)C1C(c2ccc(OC)c(OC)c2)NC(c2ccc(OC)c(OC)c2)C(C(=O)OC)S1(=O)=O (stereo unspecified)	i	-3.5%	·
COc1ccc2c(CC#N)c[nH]c2c1	i	-10%	-0.09
CS(=O)(=O)Nc1ccc(C(=O)NCc2cccnc2)cc1	i	0.3%	0.08
CN(C)[C@@H]1C(=O)C(C(N)=O)=C(O)[C@@]2(O)C(=O)C3=C(O)c4c(O)ccc(Cl)c4[C@@H](O)[C@H]3C[C@@H]12	i	-0.9%	0.02
COc1cccc(C2/C(=C(/O)c3ccccc3)C(=O)C(=O)N2CCCC(=O)O)c1 (stereo unspecified)	i	6.9%	-0.85
CCOc1ccc(S(=O)(=O)N2CCCC2)cc1	i	0.3%	·
Cc1[nH]nc(-c2ccc(O)c(C)c2O)c1-c1cnn(-c2ccccc2)c1	i	-3.0%	-0.69
Cc1occc1-c1nnc(SCc2cc(=O)n3cc(Br)ccc3n2)n1C	i	0.4%	-0.06
CCN1C(=O)NC(c2cc(Br)ccc2OC)C(C(=O)OC)=C1C (stereo unspecified)	i	7.0%	0.17
Fc1ccccc1COc1ccc(/C=N/n2cnnc2)cc1	i	-1.0%	-1.3
COc1ccc(CN(CC(=O)NCc2ccco2)C(=O)CCC(=O)Nc2ccccn2)cc1	i	-1.3%	0.15
O=C1CN2C(=Nc3ccc(Br)cc3C2c2ccccc2)CCN1 (stereo unspecified)	i	-5.4%	-0.15
CC(C)NC(=O)Cn1c(SCC(=O)N2c3ccccc3CC2C)nc2ccccc21 (stereo unspecified)	i	-6.8%	-0.68
CC(C)CCNC(=O)C1CCN(S(=O)(=O)c2ccc3c(c2)CCC(=O)N3)CC1	i	5.0%	-0.2
CCOc1cc(S(=O)(=O)N2CCC(Cc3ccccc3)CC2)c(OCC)cc1-n1cnnn1	i	-1.7%	-0.06
COc1ccc(C2c3cc(OC)c(OC)cc3CCN2C2CC(=O)N(c3ccccc3)C2=O)cc1OC (stereo unspecified)	i	-2.2%	·
Cc1nccn1-c1c2c(c(C#N)c3nc4ccccc4n13)CCCC2	i	14%	2
Cc1cc(-c2nnc(-c3ccccc3)c(-c3ccccc3)n2)c(C)o1	i	-8.6%	0.35
Cc1cc2ncn(/N=C/c3ccc(-c4ccccc4)o3)c2cc1C	i	-8.3%	·
CCOC(=O)Cc1nnc(NC(=O)CSc2nnc3c4ccccc4n(C(C)C)c3n2)s1	i	-6.8%	-0.02
NC1=NC(c2ccccc2Cl)n2c(nc3ccccc32)N1 (stereo unspecified)	i	3.8%	-1.1
OCCn1nc2c3ccccc3nc-2n(-c2ccccc2)c1=S	i	-0.3%	0.53
CCC(OC(=O)c1cccs1)C(=O)NCc1ccco1 (stereo unspecified)	i	4.1%	0.75
Cc1nnc2sc(-c3cccc4ccccc34)nn12	i	-4.6%	0.54
O=C(CN1C(=O)c2cccc3cccc1c23)Nc1ccccc1C(=O)NCc1ccco1	i	1.7%	0.28
CSc1nnc(-c2ccc(Cl)cc2Cl)o1	i	0.8%	·
CCN(CC)CCNC(=O)c1cc2c(-c3ccc(Cl)cc3)nn(C)c2s1	i	3.2%	-0.28
COCCOC(=O)C1=C(C)NC(=O)NC1c1c(F)cccc1Cl (stereo unspecified)	i	0.5%	-0.58
C=CCOc1ccc(CNc2nccs2)cc1OC	i	2.4%	·
Cc1ccc(-c2nc(Nc3ccccc3)n[nH]2)cc1	i	-1.3%	1.3
O=C(Nn1cnnc1)C(c1ccccc1)c1ccccc1	i	3.7%	0.42
Cc1cc(Nc2ccc(C)c(Br)c2)n2nc(C)nc2n1	i	-5.7%	0.55
COC(=O)c1ccc(NC(=O)c2ccc(N(C)S(C)(=O)=O)cc2)cc1	i	1.8%	-0.95
COc1ccccc1NS(=O)(=O)c1ccc(C)c(C(=O)NCC2CCCO2)c1 (stereo unspecified)	i	-2.4%	0.77
CC(=O)N1CCC(N(CCN2CCOCC2)C(=O)Nc2ccc(Cl)c(Cl)c2)CC1	i	0.5%	-0.37
C=CCN1C(=O)C(O)(CC(=O)c2ccc(N)cc2)c2ccccc21 (stereo unspecified)	i	5.1%	·
C/C(=N\NC(=O)Cc1csc(N2CCOCC2)n1)c1ccccc1	i	3.2%	·
COc1ccc(OC)c(-n2nnnc2SCC(=O)Nc2cc(C)ccc2OC)c1	i	3.7%	·
CC(NC(=O)CCNS(=O)(=O)c1ccc2c(c1)c(=O)n(C)c(=O)n2C)c1ccccc1 (stereo unspecified)	i	-4.6%	-0.0075
Cc1nnnn1-c1cccc(C(=O)O)c1	i	3.5%	·
CC(=O)Nc1ccc(SCC(=O)c2cc(C)n(C)c2C)cc1	i	1.2%	·
Cc1ccc(OCc2nnc(SCC(=O)NCc3ccco3)n2C)cc1	i	-119%	·
CCN(CC)CCN1C(=O)C2C3c4ccccc4C(c4ccccc43)C2C1=O (stereo unspecified)	i	-2.9%	2.8
CCOc1ccc(-c2nnc(-c3ccco3)o2)cc1	1.4µM*	0.5%	-0.08
Cc1ccc(/C=N/c2sc3c(c2C#N)CCCCC3)o1	i	3.3%	-0.62
CCc1ccc(OCc2nnc(SCCN3CCOCC3)n2CC)cc1	i	-4.7%	-0.9
Cc1cc(OCC(=O)N2CCCC2)cc(C)c1Cl	i	4.0%	-0.14
COc1cc(/C(C#N)=C/c2ccccc2)c([N+](=O)[O-])cc1OC	i	1.3%	·
COc1ccc(OCCOC(=O)c2cccc(-n3cnnn3)c2)cc1	i	0.7%	0.31
CC(C)(C)C(=O)/C=C(\N)c1ccncc1	i	2.5%	-0.93
CC(=O)N1CCN(S(=O)(=O)c2ccc(S(=O)(=O)NC3CC3)cc2)CC1	i	-2.7%	-0.06
OCCN1CCN(CC(O)COc2ccc3ccccc3c2)CC1 (stereo unspecified)	i	-2.0%	0.22
CNC(=O)Cn1c(=O)n(C)c2ccccc21	i	1.8%	-0.36
Cc1c(C)n(CC(O)CN2CCCCC2)c2ccccc12 (stereo unspecified)	i	1.7%	·
Cc1ccc(C(c2nnnn2CS(=O)(=O)c2ccc(C)cc2)N2CCC(C(N)=O)CC2)cc1 (stereo unspecified)	i	-0.4%	0.71
Cn1c(=O)c(=O)n(C)c2cc(S(=O)(=O)N3CCCCCC3)ccc21	i	-3.7%	-1.2
CN(Cc1cc2ccccc2[nH]c1=O)C(=O)C1CCCCC1	i	-9.2%	-0.69

Carrying on.
SMILES	MT1-MMP promoter	Hsc70 ATP site	WNV NS2B-NS3 inh
Cc1ccc(CNC(=O)CN(Cc2ccccc2)S(C)(=O)=O)cc1	i	-5.3%	·
COCCN1CN=C(Nc2nc3ccccc3o2)NC1	i	1.8%	·
CCOC(=O)Cc1csc(NC(=O)CSc2nc3sc(C(=O)O)c(C)c3c(=O)[nH]2)n1	i	2.6%	·
COc1cc(NC(=O)C2CCCN(S(=O)(=O)c3cnc[nH]3)C2)cc(OC)c1 (stereo unspecified)	i	0.5%	0.29
Cn1c(Sc2nc3ccccc3n2C)nc2ccccc21	i	1.8%	1.1
O=C(Nc1ccccc1F)C1C2C=CC3(O2)C1C(=O)N(c1cccnc1)C3C(=O)NC1CCCCC1 (stereo unspecified)	i	1.2%	-1.5
O=C(O)C1CCCCC1C(=O)Nc1ccc2c(c1)CCC2 (stereo unspecified)	i	-1.0%	4.1
O=C(O)CCOc1ccc2c(c1)OCCO2	i	-4.2%	-0.81
O=C(CSc1nnc(-c2cccnc2)o1)c1cc2ccccc2oc1=O	i	-11%	0.27
O=C(CC1C(=O)NCCN1C(=O)Nc1ccccc1)Nc1ccc2c(c1)OCCO2 (stereo unspecified)	i	-2.4%	-1.1
COc1ccccc1-c1noc(CCC(=O)Nc2cccc(C(F)(F)F)c2)n1	i	-2.0%	0.86
O=C(NCc1cccnc1)c1cc(-c2ccco2)on1	i	-0.9%	1.8
Cc1cc(NC(=O)c2cc3nc4c(c(C(F)(F)F)n3n2)CCc2ccccc2-4)no1	i	2.0%	-0.29
Cc1ccc(C(=O)N(CN2CCCC2=O)c2ccc(F)cc2)cc1C	i	4.9%	1.7
CCC(=O)N1CCc2cc(Br)cc(S(=O)(=O)CCC(=O)NCc3ccco3)c21	i	-2.8%	·
Cc1csc(NC(=O)CNS(=O)(=O)c2cccs2)n1	i	1.0%	-0.65
Cc1ccc(C)c2[nH]c(=O)c(CCNC(=O)c3ccc4c(c3)OCO4)cc12	i	1.8%	0.87
COCCCNC(=O)c1ccc(CS(=O)(=O)c2ccc(OC)cc2)o1	i	2.9%	1.1
COC(=O)C1=C(C)Nc2nc(-c3ccccc3)nn2C1c1ccc(C)o1 (stereo unspecified)	i	0.9%	0.51
O=C(NCc1ccco1)C(NS(=O)(=O)c1cccc2nsnc12)c1ccccc1 (stereo unspecified)	i	-0.6%	-1.3
Cc1ccc(-c2nnc(-c3ccccc3)o2)cc1Br	i	-3.3%	0.68
O=C(Nc1ccc2c(c1)OCO2)c1cc2ncc(Br)cn2n1	i	0.1%	-0.46
Cc1cccc(NC(=O)CSc2nnc(CSc3nc(C)cc(C)n3)o2)c1	i	5.0%	-0.09
CCCCOc1ccc(-c2nnn(CC(=O)NCc3ccco3)n2)cc1	i	-5.6%	0.45
CSCC[C@H](NC(=O)OC(C)(C)C)c1nnc(SCC(N)=O)o1	i	-1.2%	-0.26
O=C(CSc1nnnn1C1CCCC1)N1CCCc2ccccc21	i	-2.6%	0.19
CCOc1cc(C(N)=O)cc(Br)c1OC	i	2.6%	·
CCCN1C2CCCC1CC(NC(=O)Nc1cccc(C(C)=O)c1)C2 (stereo unspecified)	i	0.9%	0.45
CCN(CC)c1ccc(C2Nc3cccc4cccc(c34)N2)c(O)c1	i	-25%	-0.29
COCCNC(=O)Cc1ccc(Br)cc1	i	-10%	-0.02

Looked up by compound from the entries so far:
SMILES	MT1-MMP promoter	Hsc70 ATP site	WNV NS2B-NS3 inh
CCOC(=O)Cc1csc(NC(=O)CSc2nc3sc(C(=O)O)c(C)c3c(=O)[nH]2)n1	i	2.6%	·
CCC(=O)N1CCc2cc(Br)cc(S(=O)(=O)CCC(=O)NCc3ccco3)c21	i	-2.8%	·
Cn1c(Sc2nc3ccccc3n2C)nc2ccccc21	i	1.8%	1.1
COCCNC(=O)Cc1ccc(Br)cc1	i	-10%	-0.02
Cc1ccc(CNC(=O)CN(Cc2ccccc2)S(C)(=O)=O)cc1	i	-5.3%	·

(further entries)
SMILES	MT1-MMP promoter	Hsc70 ATP site	WNV NS2B-NS3 inh
CCOC(=O)C1=C(C)OC(N)=C(C#N)C1c1c(C)nn(-c2ccc(C)cc2)c1Cl (stereo unspecified)	i	2.2%	-0.54
CC1(C(=O)Nc2nccs2)Cc2ccccc2C(=O)O1 (stereo unspecified)	i	6.8%	-0.2
COc1ccc(N2C(=O)C(Cl)=C(N3CCN(Cc4ccccc4)CC3)C2=O)cc1	i	-2.4%	-0.23
CCOC(=O)/C=C1\SCC(=O)N1CCOc1cccc(Br)c1	i	-5.0%	0.09
Cn1cc(C(=O)NC2CCCCCCC2)c(=O)c2cc(S(=O)(=O)N3CCCC3)ccc21	i	1.5%	-0.52
C=CCn1c(=N)c(C(=O)NCCCOC)cc2c(=O)n3ccccc3nc21	i	2.8%	1.8
c1ccc(CCNc2ncnc3c2cnn3-c2ccccc2)cc1	i	0.0%	0.45
Cc1ccc(-c2nn(-c3ccccc3)c3[nH]c(=O)c(CNCc4ccccc4)cc23)cc1	i	-7.4%	·
O=C1c2cccnc2C(=O)N1CO	i	-6.3%	0.83
CCN1CCCC1CNC1=NCCCCC1 (stereo unspecified)	i	1.8%	-0.16
O=C(O)c1ccc(NS(=O)(=O)c2ccc(Cl)cc2)cc1	i	-4.6%	-0.24
Cc1ccc(NC(=O)c2ccco2)c(NC(=O)CN2C(=O)c3ccccc3C2=O)c1	i	0.9%	-0.15
CCC1C2CN(C(C)=O)CC=C2C(C#N)=C(N)C1(C#N)C#N (stereo unspecified)	i	1.9%	0.15
CCOC(=O)CSc1nc2nc(C)cc(C)n2n1	i	1.1%	-0.14

Shown field by field: entries from further up
> CCOC(=O)CSc1nc2nc(C)cc(C)n2n1
  MT1-MMP promoter: i
  Hsc70 ATP site: 1.1%
  WNV NS2B-NS3 inh: -0.14
> O=C(O)c1ccc(COc2ccc3c4c(c(=O)oc3c2)CCC4)o1
  MT1-MMP promoter: i
  Hsc70 ATP site: -10%
  WNV NS2B-NS3 inh: -0.5
> CN(C)[C@@H]1C(=O)C(C(N)=O)=C(O)[C@@]2(O)C(=O)C3=C(O)c4c(O)ccc(Cl)c4[C@@H](O)[C@H]3C[C@@H]12
  MT1-MMP promoter: i
  Hsc70 ATP site: -0.9%
  WNV NS2B-NS3 inh: 0.02
> Cc1nnc2sc(-c3cccc4ccccc34)nn12
  MT1-MMP promoter: i
  Hsc70 ATP site: -4.6%
  WNV NS2B-NS3 inh: 0.54
